Screens from PubChem BioAssay.
Ba CapD inh: blocks the Bacillus anthracis CapD enzyme; purified CapD enzyme, fluorescence intensity read-out; hits give low values; some hits fall short of the stated cut; z-score (concentration not given with the values); actives 0.23% (n = 140,000); AID 492967;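 active = z-score under -4 in either of two replicates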;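 note: stock transfer was 100 nL into about 40 µL; score is relative to mean and spread of the plate; one replicate is shown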
AID504770: E. coli YBA685 growth inhibition, screen for V. cholerae RctB inhibitors; actives 0.27% (n = 130,000); AID 504770; z-score (concentration not given with the values); E. coli YBA685 rctB-dependent plasmid, OD600 growth, 3 h; hits give low values;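 active = z-score under -2 on both plates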;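 note: wells of about 30 µL received 100 nL stock; score is relative to mean and SD of the test wells; the first replicate is given; strong numbers were not always called active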
* hit, by the source's call; . = not tested or not shown; & = joins results of further samples.

SMILES	Ba CapD inh	AID504770
O=C(CSc1ccc(C(F)(F)F)cn1)Nc1ccccc1	0.075	0.45
COc1cc(/C=N/NC(=O)CCc2ccc(O)cc2)cc(OC)c1OC	0.21	.
CCCN1C2=NCCCN2c2ccccc21	-0.14	0.5
C/C(=N/O)C1C(=O)c2ccccc2C1=O	-4.3*	1.5
O=C(CN1CCC(C(=O)Nc2ccccc2)CC1)NCc1ccc(CN2CCOCC2)cc1	.	0
O=C(COC(=O)c1cc(F)c(F)cc1Cl)NC1CC1	-0.53	-0.7
Cc1noc(C)c1COC(=O)Cc1ccc(Cl)cc1	.	-0.85
CC(=O)N1CCC(C(=O)Nc2ccc(-c3cnco3)cc2)CC1	-0.055	-0.25
O=C(NCc1cccs1)c1csc(Cc2c(Cl)cccc2Cl)n1	9.3	0.4
O=c1[nH]ncc(NCCc2ccccc2)c1Cl	.	0
CN(C)Cc1c(O)ccc2cc(-c3nc4ccccc4o3)c(=O)oc12	0.28	0.1
O=C(O)CCN1CCSC1=O	.	-0.65
COc1cc(C2CC(c3ccco3)=Nc3ccccc3S2)cc(OC)c1OC (centres undefined)	-0.49	.
CCOC(=O)Cc1nnc(Nc2ccc(OC)cc2)c2ccccc12	-0.52	.
COc1ccc2ncc3c(c2c1)-c1cc(Cl)ccc1OC3	65	1.1
CN1CCC(N(C)C(=O)c2ccccc2Nc2ccc(SC(F)F)cc2)CC1	.	-0.3
O=C(COC(=O)C12CC3CC(CC(C3)C1)C2)NCc1ccco1	0.49	-0.65
Clc1ccc(CNC2CN3CCC2CC3)cc1 (centres undefined)	0.17	1.4
COC(=O)c1ccc(C2C(C#N)=C(N)Oc3n[nH]c(-c4cc(OC)c(OC)c(OC)c4)c32)cc1 (centres undefined)	0.47	.
CCOC(=O)C1=CN(C(C)C)C=C(C(=O)OCC)C1c1cc(Br)c(OC)c(OC)c1	58	.
CC(=O)Oc1cccc(NC(=O)CC2SC(N)=NC2=O)c1 (centres undefined)	.	-0.55
C=CCn1c(=O)c2c(C)c(C)sc2n2c(Nc3ccccc3)nnc12	.	-0.7
O=C(O)CCN(Cc1ccccc1)S(=O)(=O)c1ccccc1Cl	.	1.5
CC(C)(C)c1ccc(Sc2cc3c(c(N4CCCCC4)c2)C(=O)c2ccccc2C3=O)cc1	-0.16	.
CCOC(=O)C1=C(N)Oc2n[nH]c(-c3cccc([N+](=O)[O-])c3)c2C12C(=O)Nc1ccccc12 (centres undefined)	-0.64	.
Cc1ccc2nc(SCC3CCCCO3)[nH]c2c1 (centres undefined)	.	0.3
CCN(CC)c1nc(C)nc2c1sc(=S)n2-c1ccccc1	-1.4	-0.85
Oc1c(Br)cc(Br)cc1C=NCc1ccccc1	-1.6	.
Ic1ccc(-n2cccc2)cc1	-0.49	.
Cc1ccc(C(=O)OCC(=O)Nc2ccc(Cl)c(Cl)c2)s1	-0.035	-0.15
CC(=O)N(C)Cc1nc2ccccc2n1C	0.51	0.45
CC1CN(CC(O)(c2ccc(Cl)cc2)c2ccc(Cl)cc2)CC(C)O1 (centres undefined)	-0.6	.
O=C(COC(=O)Cc1cn2ccsc2n1)Nc1ccc(Br)cc1	.	-0.6
Nc1c2c(nc3ccccc13)CCCC2	-0.19&1.5	.
CC(C)(C)Nc1nc(Cl)nc(Oc2ccc(=O)n(-c3ccccc3)n2)n1	-0.04	-0.25
O=c1ccc(C(F)(F)F)cn1Cc1cc2c(cc1Br)OCO2	.	0.15
Cc1cc2nc(-c3ccc(SCC#N)nc3)[nH]c2cc1C	.	-0.1
COCCn1c(Sc2ncnc3sccc23)nc2ccccc21	.	-0.25
CC(C)NC(=O)COc1ccc(S(=O)(=O)N2CCCC2)cc1	.	1.9
COc1cccc(C(=O)N/N=C/c2cc(F)ccc2F)c1	0.45	.
CC1(C)C2CCC(CNC(=O)OCCN3CCN(Cc4cc5ccccc5o4)CC3)C1C2 (centres undefined)	-0.84	.
Nc1c(C(=O)Nc2cc(C(F)(F)F)ccc2Cl)sc2nc3c(cc12)CCC3	2.5	.
CCc1ccccc1NC(=O)CSc1nc2cc(C(=O)NCc3ccco3)ccc2c(=O)n1Cc1ccco1	3.2	.
COC(=O)c1ccc(N(C=O)C(=S)SC)cc1	.	1.9
O=C(COC(=O)/C=C/c1ccco1)Nc1cc(-c2ccccc2)nn1-c1ccccc1	.	0.15
O=C(CSc1ccccc1)NCc1cccs1	-0.67	-0.8
Cc1ccc(CCNS(=O)(=O)c2c(C)nc3sccn3c2=O)cc1	9	-2.4
COc1cccc(-n2nc(-c3ccnn3-c3ccc(C)cc3)c(=O)n(C)c2=O)c1	-0.89	.
CCc1ccccc1NC(=O)Cn1cc2c(n1)CCCC2	0.1	0.25
CC(=O)Oc1ccc(C)cc1NC(=O)CC1SC(=Nc2ccc(F)cc2)N(C)C1=O (centres undefined)	-0.79	1.8
COc1ccc(CNC2C3CC4CC(C3)CC2C4)c(OC)c1C (centres undefined)	-0.79	0.15
CN(C)CCn1c(N)c(-c2nc3ccccc3n2C)c2nc(C#N)c(C#N)nc21	-0.9	-0.3
O=C(Nc1c(Cl)cccc1Cl)C(F)(F)Oc1cccc(C(F)(F)F)c1	-0.49	.
CCOc1ccc(OCC)c(S(=O)(=O)NCc2ccco2)c1	0.16	1.4
CC1(C)Cc2ccccc2-c2[nH]c(=S)[nH]c(=O)c21	0.21	.
CC(=O)Nc1ccc2c(COC(=O)c3ccc(S(=O)(=O)N(C)C)cc3)cc(=O)oc2c1	.	0
COc1ccc(CNc2nccs2)cc1OC	.	1.3
CO/N=C(/CS(=O)(=O)c1ccc(OC)cc1)c1ccc(Cl)cc1	0.14	.
CCCn1c(=O)c2ccccc2n2c(SCC(=O)NC(C)(C)C)nnc12	.	-0.7
Cc1cc(C)c(NC(=O)CCNC2CCCCC2)c(C)c1	0.41	1.4
Additional results.
SMILES	Ba CapD inh	AID504770
Nn1cc(-c2ccccc2)nn1	-0.24	-0.35
Nc1cccc(Nc2ncnc3ccccc23)c1	27	-1
O=C(O)c1ccc2c(c1)N(Cc1ccc(F)cc1)C(=O)/C(=C\c1ccccc1)S2	-0.47	0.3
COCCn1c(O)c(/C=N/c2c(C#N)c(C)c(C)n2C2CCCCC2)c(=O)[nH]c1=S	.	-0.9
ClCc1cnn(-c2ccccc2)c1-n1cccc1	-0.36	-1.1
COc1ccc(/C=C(\C#N)c2nc(-c3cc4cc(Br)ccc4oc3=O)cs2)cc1	0.36	.
COc1ccccc1C(=O)Nc1ccc(-c2nc3ccccc3o2)cc1	42	0.3
O=C(O)c1c2c(nc3ccccc13)CCN(C(=O)c1cccc(C(F)(F)F)c1)C2	-0.07	.
O=C1CSC2(C(=O)Nc3ccccc32)N1c1ccccc1 (centres undefined)	-0.74	1.1
CCCCSc1nnc(-c2ccc3[nH]c(C)c(C)c3c2)o1	.	1
COC(=O)c1ccccc1NC(=O)/C=N/O	-0.2	-0.1
COc1ccc2c(c1OC)C(=O)N1N=C(c3ccc(Br)cc3)CC21 (centres undefined)	1.3	.
O=C(COC(=O)C1CCN(S(=O)(=O)c2ccc3c(c2)OCCO3)CC1)c1c[nH]c2ccccc12	.	-0.15
N#CCNC(=O)c1ccc(Br)cc1	0.43	-0.9
Cc1onc(-c2c(F)cccc2Cl)c1C(=O)c1ccccc1	0.53	.
COc1ccc([N+](=O)[O-])cc1N(CC(O)CN(Cc1ccccc1)Cc1ccccc1)S(=O)(=O)c1ccccc1 (centres undefined)	-0.49	.
O=C(O)CC1(CC(=O)Nc2cccnc2)CCCC1	3.2	-0.65
CC(=O)NCC(c1ccco1)N1CCN(c2ccccc2)CC1 (centres undefined)	.	1.8
Cc1ccccc1NC(=O)N1CCC(C(N)=O)CC1	-0.29	-3.2
CC(=O)n1c(=O)oc2cc(Cl)ccc21	.	1.9
CC(C)(C)C(=O)NCC(=O)O	.	-0.5
Oc1ccc(-c2csc(-c3ccccc3)n2)cc1O	.	3.5
Oc1oc(-c2ccc(Br)cc2)nc1C=Nc1cccc(C(F)(F)F)c1	0.59	.
O=C1c2ccccc2SC(c2ccc([N+](=O)[O-])cc2)N1Cc1ccccc1 (centres undefined)	0.3	.

Not a retest: an excerpt of the list.
SMILES	Ba CapD inh	AID504770
CCCCSc1nnc(-c2ccc3[nH]c(C)c(C)c3c2)o1	.	1
COC(=O)c1ccccc1NC(=O)/C=N/O	-0.2	-0.1
COc1ccc2c(c1OC)C(=O)N1N=C(c3ccc(Br)cc3)CC21 (centres undefined)	1.3	.
O=C(COC(=O)C1CCN(S(=O)(=O)c2ccc3c(c2)OCCO3)CC1)c1c[nH]c2ccccc12	.	-0.15
N#CCNC(=O)c1ccc(Br)cc1	0.43	-0.9
Cc1onc(-c2c(F)cccc2Cl)c1C(=O)c1ccccc1	0.53	.
COc1ccc([N+](=O)[O-])cc1N(CC(O)CN(Cc1ccccc1)Cc1ccccc1)S(=O)(=O)c1ccccc1 (centres undefined)	-0.49	.
O=C(O)CC1(CC(=O)Nc2cccnc2)CCCC1	3.2	-0.65
CC(=O)NCC(c1ccco1)N1CCN(c2ccccc2)CC1 (centres undefined)	.	1.8
Cc1ccccc1NC(=O)N1CCC(C(N)=O)CC1	-0.29	-3.2
CC(=O)n1c(=O)oc2cc(Cl)ccc21	.	1.9
CC(C)(C)C(=O)NCC(=O)O	.	-0.5
Oc1ccc(-c2csc(-c3ccccc3)n2)cc1O	.	3.5
Oc1oc(-c2ccc(Br)cc2)nc1C=Nc1cccc(C(F)(F)F)c1	0.59	.
O=C1c2ccccc2SC(c2ccc([N+](=O)[O-])cc2)N1Cc1ccccc1 (centres undefined)	0.3	.

Single records, as listed above. Values in the order: Ba CapD inh, AID504770
Record of N#CCNC(=O)c1ccc(Br)cc1 : 0.43, -0.9
Record of O=C1c2ccccc2SC(c2ccc([N+](=O)[O-])cc2)N1Cc1ccccc1 (centres undefined) : 0.3, .

(further entries)
SMILES	Ba CapD inh	AID504770
COc1cc(NC(=S)NC(=O)c2csnn2)c(Cl)cc1Cl	-0.14	.
CCN1C(=O)c2ccccc2S(=O)(=O)c2ccc(C(=O)NCCN3CCCCCC3)cc21	0.14	0.3
O=C(CSc1nccn1-c1ccccc1)NCc1ccccc1	-0.55	-0.7
COc1ccc(Cl)cc1-n1c(C)nc2cc(C(=O)NCC(OC)OC)ccc21	8.4	-0.35
Oc1ccc(CNCC2NCCc3ccccc32)cc1Cl (centres undefined)	0.86	1.2
N#Cc1ccc(OCCOCCn2cncn2)cc1	0.23	-0.35
Cc1cccc(C)c1N1CCN(C(=O)N2CCCCC2)CC1	-0.17	0.35
N#CC(=NCc1cccnc1)C1=C(O)c2ccccc2C1=O	-0.065	-1.1
c1ccc2c(c1)ncn2CCN1CCOCC1	0.4	-0.15
Cc1onc(-c2ccccc2)c1C(=O)Nc1sc2c(c1C#N)CCC(C)C2 (centres undefined)	0.63	.
CCCC(=O)Nc1cc(C(=O)NCc2cccs2)ccc1S(=O)(=O)c1ccc(Cl)cc1	0.26	-0.3
O=C1CNC(=S)N1CCc1ccc(O)c(O)c1	-0.15	0.15
Cc1nn(CC(=O)Nc2ccccc2F)c(=O)c2cccn12	-0.22	0.65
COc1ccc(/C=C2\SC(=O)N(CCNS(=O)(=O)c3ccccc3OC)C2=O)cc1	.	-0.35
COc1ccc(Nc2cc(C(=O)NCCCN3CCCC3)c3ccccc3n2)cc1	38	1.1
COC(=O)c1noc(C)c1-c1ccnn1C(=O)c1ccc(Cl)cc1	0.53	-1.3
CSc1nc(C)cc(-n2ccc(=O)[nH]c2=O)n1	0.71	0.45
N#Cc1ccccc1NC(=O)CN1CCN(S(=O)(=O)/C=C/c2ccccc2)CC1	.	0.4
O=C(c1ccccc1)N1CCN(S(=O)(=O)c2ccccc2)CC1	.	0.15
CCOc1ccc(C(=O)NC(C(=O)NCC2CCCO2)C(C)C)cc1 (centres undefined)	.	0.05
COc1cc(OC)c(S(=O)(=O)N(C)c2ccccc2)cc1S(=O)(=O)N(C)c1ccccc1	0.53	-0.15
COc1cccc(C2C(N3C(=O)c4ccccc4C3=O)C(=O)N2c2ccc(C)cc2)c1 (centres undefined)	-0.035	.
COCCN(C(=O)c1ccco1)c1nnc(-c2ccc(F)cc2)s1	.	-0.2
O=C(Cc1ccc(Cl)cc1)Nc1ccccc1C(=O)N1CCOCC1	-0.18	0.9
COCCN(Cc1nc2ccccc2c(=O)[nH]1)C(=O)C1=NN(c2cccc(C)c2)C(=O)CC1	.	-0.55
Cn1c(CCCNC(=O)C(C)(C)C)nc2ccccc21	-0.41	-0.25
CCS(=O)(=O)C1=NN2C(=N)/C(=C\c3ccc(OC)cc3)C(=O)N=C2S1	-1.5	1.9
COc1cc(Cl)c(C)cc1NC(=O)COC(=O)C(C)C	0.69	-0.3
COc1ccc(CC(=O)OCC(=O)NC2CC2)cc1	.	0.95
CCOC(=O)C1=C(C)OC(N)=C(C#N)C1c1cccc(C(F)(F)F)c1 (centres undefined)	2.5	.
O=C1NC2(CCCc3sccc32)C(=O)N1CCN1C(=O)c2ccccc2C1=O (centres undefined)	.	-0.55
Cc1cc(C)nc(NC(N)=NC(C)c2ccccc2)n1 (centres undefined)	.	-0.35
CCCCN(C)C(=O)C1CCCN(c2nnc(C)c3c(C)n(-c4ccccc4)nc23)C1 (centres undefined)	6.2	0.2
O=C1CCCN1c1ccc(Cl)c(Cl)c1	-0.56	.
N/C(=N/O)c1ccccc1N	0.04	-1.5
Cn1c(NC(=O)c2ccccc2NC(=O)c2ccccc2)nc2ccccc21	-0.11	1.4
COC(=O)c1sccc1Oc1ccc(Cl)cc1N1C(=O)CCC1=O	-1.2	-0.7
CC(C)(C)OC(=O)N1CCC(CNS(=O)(=O)c2cccc(C(F)(F)F)c2)CC1	-0.2	-0.35
Cc1cc(Nc2ccccc2)nc(Nc2ccccc2)n1	2.2	-0.65
COc1cc(C2Nc3ccc(C(=O)c4ccccc4)cc3NC3=C2C(=O)CCC3)cc(OC)c1O (centres undefined)	-1.7	.
O=C(NC(=O)c1csnn1)Nc1ncccn1	-0.53	.
